SARS PLP yeast: blocks SARS-CoV papain-like protease in a yeast assay; hit rate 0.19% among 330,000; AID 485353; S. cerevisiae expressing SARS-CoV PLpro, growth rescue; control for the full effect not named in the record; Potency, µM (highest dose often 32.9 µM), without a hit: at the top dose activity, positive = growth rescue; note: 0% is about no effect; nearly all actives have a fitted effect of over 55% in size; growth read by luminescence after 48 h
Cruzain inh Det: inhibitors of Trypanosoma cruzi cruzain with detergent; Potency, µM, for the others: max response, negative = inhibition, usual class: inhibitors; P25779; AID 1478; hit rate 0.43% among 200,000; purified cruzain, Z-FR-AMC fluorescence, 0.01% Triton; active = well fitted curve in the direction sought with a large enough effect; inconclusive = small, poorly fitted or top-dose-only effect, or another doubt; inactive = no such curve, though single readings can be large; an effect the other way counts as inactive or inconclusive;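 note: plate controls were neutral wells for no effect and buffer without enzyme for full effect; nearly all actives have a fitted effect of over 40% in size; top concentration of the series not given in the record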
Target sequence (P25779 123-467 limits assumed): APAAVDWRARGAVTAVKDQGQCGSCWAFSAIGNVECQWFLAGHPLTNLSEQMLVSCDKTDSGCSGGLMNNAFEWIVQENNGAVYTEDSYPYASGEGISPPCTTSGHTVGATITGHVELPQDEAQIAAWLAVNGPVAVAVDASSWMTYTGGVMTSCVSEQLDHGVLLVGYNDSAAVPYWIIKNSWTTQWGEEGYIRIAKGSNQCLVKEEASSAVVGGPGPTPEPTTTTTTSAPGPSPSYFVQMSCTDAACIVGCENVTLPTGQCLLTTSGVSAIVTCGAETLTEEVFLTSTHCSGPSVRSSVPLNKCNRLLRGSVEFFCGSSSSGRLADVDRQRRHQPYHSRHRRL
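Cruzain (1.5 nM) preincubated 15 min at RT with compound in 100 mM sodium acetate pH 5.5, 5 mM DTT, 0.01% Triton X-100. Reaction started with 2 uM Z-FR-AMC; AMC fluorescence (ex 360/em 450 nm) change over 60 s gave rate.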
Lassa entry inh: blocks Lassa virus binding to or entry into cells. Lassa virus pseudotype entry inhibition, cell reporter; control for the full effect not named in the record. Potency, µM (doses to about 37.9 µM), inactives show at the top dose activity change, negative = inhibition, actives largely listed as inhibitors. hit rate 1.2% among 300,000. AID 540256; active means well fitted inhibition curve with a large enough effect; inconclusive means small, poorly fitted or top-dose-only effect, or effect the other way; inactive means flat fitted curve, though single readings scatter; tested in HEK293 cells; note: % is set by controls: 0 for no effect and ±100 for the full control effect; nearly all actives have a fitted effect of over 50% in size; luciferase read-out
RE007 growth inh: less growth of the S. pombe RE007 Vpr strain; S. pombe RE007 Vpr strain, BacTiter-Glo ATP luminescence, 24 h; control for the full effect not named in the record; Potency, µM (top dose mostly 92.2 µM), for the others: top-dose activity change, negative = less growth; hit rate 0.21% among 360,000; active = well fitted falling curve with a large enough effect; inconclusive = small, poorly fitted or top-dose-only effect; inactive = no such curve, though single readings can be large or run the other way;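 note: % is set by controls: 0 for no effect and ±100 for the full control effect; nearly all actives have a fitted effect of over 50% in size; the assay follows cell death caused by Vpr and the record does not say whether a fall means rescue or toxicity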
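Fission yeast RE007 carrying one integrated HIV-1 vpr copy, seeded at OD 0.01 in PMG+AL medium with 23 nL pinned compound. Grown 24 h at 30 degrees; viability read by BacTiter-Glo luminescence after 5 min.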
2A StopGo: lowers the luciferase signal of an FMDV 2A StopGo reporter; human cells with a luciferase reporter of 2A StopGo recoding; control for the full effect not named in the record; Potency, µM (doses to about 57.9 µM), for the others: top-dose signal change, negative = less light; hit rate 1.2% among 410,000; active = well fitted falling curve with a large enough effect; inconclusive = small, poorly fitted or top-dose-only effect; inactive = no such curve, though single readings can be large or run the other way; tested in HEK293T cells; note: % is set by controls: 0 for no effect and ±100 for the full control effect; nearly all actives have a fitted effect of over 45% in size; luciferase light after 4 h
Cruzain inh noDet: cruzain (T. cruzi) inhibition without detergent; AID 1476; purified cruzain, Z-FR-AMC fluorescence, no detergent; hit rate 2.3% among 200,000; P25779; Potency, µM, without a hit: max response, negative = inhibition, hits mostly inhibitors; active = well fitted curve in the direction sought with a large enough effect; inconclusive = small, poorly fitted or top-dose-only effect, or another doubt; inactive = no such curve, though single readings can be large; an effect the other way counts as inactive or inconclusive;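 note: plate controls were enzyme without inhibitor for no effect and buffer without enzyme for full effect; nearly all actives have a fitted effect of over 40% in size; top concentration of the series not given in the record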
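Detergent-free condition (0.00005% Triton X-100) in acetate buffer pH 5.5 with DTT. 1.5 nM enzyme and compound were pre-mixed 15 min, then 2 uM Z-FR-AMC substrate added; reaction progress from fluorescence change between first and third reads (60 s).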
NS1 inh: inhibitors of influenza NS1 protein function. Potency, µM (series often up to 46.1 µM), for inactives: top-dose activity, positive = more growth. hit rate 0.4% among 270,000. S. cerevisiae slowed by influenza A NS1, growth recovery by OD600; note: actives are rising curves; nearly all actives have a fitted effect of over 50% in size
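In this qHTS, NS1 from influenza A is expressed in budding yeast, where it slows growth. Cells are switched from glucose to 2% galactose medium (pH 6.0, -URA), treated with compound, and growth recovery is read at OD600.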
Marburg entry inh: Marburg virus entry inhibition. Marburg virus pseudotyped entry inhibition, cell reporter; control for the full effect not named in the record; about a third of the inactives were read at about 46 µM. Potency, µM (top dose mostly 37.8 µM), inactives show at the highest dose activity change, negative = inhibition, most hits filed as inhibitors. hit rate 1.8% among 300,000; active = well fitted inhibition curve with a large enough effect; inconclusive = small, poorly fitted or top-dose-only effect, or effect the other way; inactive = flat fitted curve, though single readings scatter; tested in HEK293 cells; about a fifth of its hits are not listed in these tables; note: % is set by controls: 0 for no effect and ±100 for the full control effect; luciferase read-out
* = called active by the depositor; ? = inconclusive; / = not tested or not shown; & = joins results of further samples; [ ] = another dose, or the depositor's remark. Unless noted, calls come from the whole dose curve; as a rule, active means well fitted rising curve with a large enough effect; inconclusive means small, poorly fitted or top-dose-only effect; inactive means no such curve, though single readings can be large or run the other way. Potency is the fitted concentration of half-maximal effect.

SMILES | SARS PLP yeast | Cruzain inh Det | Lassa entry inh | RE007 growth inh | 2A StopGo | Cruzain inh noDet | NS1 inh | Marburg entry inh
Cc1c(CCOC(=O)CC23CC4CC(CC(C)(C4)C2)C3)sc[n+]1Cc1ccc([N+](=O)[O-])cc1 | -6% | / | / | -1%&24% | 1%&-23% | / | 1% | /
COc1ccc(-c2cc(C(F)(F)F)nc(SCCC(=O)N3CCCC3)n2)cc1 | 9% | -8.5% | 10% | -5% | -12% | ? | -1% | -14%
Cc1cc(C)n2nc(C(=O)NCCc3ccccc3)nc2n1 | 0% | 9.7% | ? | -3% | 27% | -6% | -3% | 0%
CCOc1ccc(N(CC(=O)NC2CCCCC2)C(=O)CCCC(=O)Nc2ccccn2)cc1 | -4% | / | 10µM* | 1% | 43%[activator] | / | -14% | -1%[46.1 µM]
CC(CCc1ccccc1)NC(=O)c1cncc(Br)c1 (stereo not given) | -2% | 2.8% | 0% | 1% | -30% | 8% | -4% | 4%
Cc1ccc(C(=O)Nc2cc3c(cc2N2CCCC2)n(C)c(=O)c(=O)n3C)cc1 | / | -4.0% | -9%[46.1 µM] | / | -22% | -9% | / | /
C=CCn1ccc2c([N+](=O)[O-])cccc2c1=O | -5% | / | ? | -12% | -2% | / | / | -3%
Cc1cnc(CNC(=O)c2ccc3oc(Cc4ccc(Cl)cc4)nc3c2)cn1 | 0% | / | 18%[46.1 µM] | -6% | -11% | / | -23% | -3%[46.1 µM]
COc1cc(Nc2ccccn2)cc(C(=O)Nc2cccc(C(F)(F)F)c2)c1 | -20% | / | / | 18%&-2% | ? | / | -116% | /
CCn1c(SCC(=O)Nc2nc(C)cs2)nnc1-c1cccnc1 | -8% | 1.1% | -9%[14.3 µM] | -15% | -4% | -4% | -57% | 0%
COc1cc(NS(=O)(=O)c2cnc(N)nc2)cc(OC)c1 | / | 1.1% | 1%[46.1 µM] | / | -8% | 3% | / | /
CN(C)CCCNC(=O)c1cc(C(=O)Cc2ccc(Cl)cc2)c[nH]1 | 0% | / | / | 0% | 12% | / | -3% | /
OC(CNCc1ccccc1)COCc1ccc(Cl)cc1 (stereo not given) | 0% | / | 9% | 4% | -13% | / | / | ?
CCOC(=O)NC(Nc1nnc(C)s1)(C(=O)OCC)C(F)(F)F (stereo not given) | 3% | -1.6% | -11% | 1% | -14% | 1% | 1% | ?
COCCNC(=O)c1cn(Cc2c(F)cccc2Cl)nn1 | -3% | 2.8% | 10% | 15% | 26% | -2% | 2% | -3%
CCN(CC)Cc1cc(O)c(CN(CC)CC)cc1O | -2% | / | / | -3% | -9% | / | -7% | /
COc1cc(S(=O)(=O)Nc2ccc(C(=O)NCC(=O)O)cc2)ccc1NC(C)=O | 0% | / | 14% | 21% | 0% | / | / | 18%[46.1 µM]
Cc1ccc(C)c(Nc2cc(C(=O)NC3CCCCC3)c3ccccc3n2)c1 | / | -0.2% | -2%[46.1 µM] | / | 8% | -14% | / | -2%[46.1 µM]
CC(C)(C)c1ccc(C(=O)NCCCNC(=O)c2ccccn2)cc1 | -2% | / | 20%[46.1 µM] | -2% | 2% | / | -16% | 1%[46.1 µM]
CCn1ccc2cc(S(=O)(=O)N3CCCN(C(=O)Nc4cccc(SC)c4)CC3)ccc21 | / | -2.4% | ? | / | -9% | ? | / | /
COc1cc(C(=O)NCCC2=CCCCC2)cc(OC)c1OC | -11% | 1.7% | ? | -6% | 16% | 19% | -6% | -22%
COc1ccc(Nc2nc(N)nc(CSC(=S)N3CCOCC3)n2)cc1 | -2% | / | / | -10% | 0% | / | 0% | /
OCC1(CCOc2ccccc2)CCN(Cc2ccccc2C(F)(F)F)CC1 | 4% | / | 0%[46.1 µM] | -1% | 18% | / | -7% | 11%[46.1 µM]
CCNC(=S)NS(=O)(=O)c1ccc(CC)cc1 | 9% | -7.4% | 0% | -12% | 21% | 1% | -98% | ?
CCC(=O)N(NC1=NS(=O)(=O)c2ccccc21)S(=O)(=O)c1ccc(C)cc1 | 1% | / | -3%[46.1 µM] | 10% | 7% | / | 9% | 17%[46.1 µM]
Cc1cccc(Nc2nc(N)c([N+](=O)[O-])c(N3CC(C)OC(C)C3)n2)c1 (stereo not given) | -1% | / | / | 15% | 3.2µM* | / | 2% | /
O=C(CSc1nc(-c2ccccc2)c(-c2ccccc2)[nH]1)NCCN1C(=O)CSC1=O | 1% | -0.5% | ? | 9% | ? | ? | -7% | ?
CCc1nc2ccccc2n1CCC(C)C | 2% | 0.1% | -8% | -21% | -11% | -7% | 0% | -13%
CNCCCc1ccccc1 | 1% | 2.2% | -40% | -10% | -16% | -8% | 18% | ?
Cc1ccccc1Cn1c(CN2CCN(C(=O)c3ccco3)CC2)nc2c1c(=O)n(C)c(=O)n2C | -3% | 1.0% | / | -1% | -14% | ? | -4% | 0%
CCOc1ccccc1CN(CCc1ccc2c(c1)OCO2)Cc1ccc(CC)cc1 | / | -3.7% | -32%[46.1 µM] | / | -2% | 2% | / | -30%[46.1 µM]
CCC(Cc1ccccc1)NS(=O)(=O)c1c(C)nc2scc(C)n2c1=O (stereo not given) | 11% | / | / | -4% | 4% | / | 4% | /
COC(=O)c1c(C)[nH]c(C(=O)C(Cc2ccccc2)N(C)C)c1C (stereo not given) | 10% | -1.0% | 29% | 0% | 19% | -12% | -1% | 12%
C=CCc1cc(C)ccc1OCC(O)CN1CCN(c2ccccc2)CC1 (stereo not given) | -6% | 1.2% | 18% | -11% | -16% | 11% | -16% | -23%
CCCSc1nsc(SCCC)c1C(N)=O | 2% | 1.2% | 16% | 17% | -6% | ? | -15% | 9%
O=[N+]([O-])c1ccccc1Nc1ccccc1[N+](=O)[O-] | / | / | -9%[46.1 µM] | 2% | -14% | / | / | -5%
COc1ccc(N2CCN(C3CCCN(C(=O)CCN4CCCCO4)C3)CC2)cc1 (stereo not given) | 2% | / | / | -6% | -10% | / | 3% | /
COc1cc(NC(=O)CCS(=O)(=O)c2ccc3nc(C)sc3c2)cc(OC)c1OC | 1% | / | 22%[46.1 µM] | 20% | -8% | / | 4% | 11%[46.1 µM]
Cc1ccc(NC(=O)CSc2nc3ccccc3nc2Cc2ccccc2)c(C)c1 | / | 2.4% | -13%[46.1 µM] | / | -12% | -1% | / | /
CCN1C(=O)c2ccccc2Sc2ccc(NC(=O)Cc3ccc(OC)cc3)cc21 | / | -4.1% | ? | / | 1% | 13% | / | /
CCOC(=O)C1C(=O)C(C(=O)OCC)C(c2cccnc2)NC1c1cccnc1 (stereo not given) | -1% | 0.4% | 3% | -10% | -12% | 10% | -10% | 2%
COc1ccc(C2/C=C\CN(CC3CC3)CC(=O)N2Cc2ccc(F)cc2)cc1 (stereo not given) | -4% | / | / | -9% | -23% | / | -3% | /
O=C(Cn1cc(C(F)(F)F)ccc1=O)Nc1ccccc1 | -1% | / | 15% | -9% | 39%[activator] | / | 5% | 21%[46.1 µM]
N#CCCN(Cc1cccnc1)C(=S)NC(=O)c1ccc(S(=O)(=O)N2CCCC2)cc1 | 0% | / | -3% | 4% | 4% | / | / | 11%
O=C(NCc1cccc(C(F)(F)F)c1)c1cc(Cl)cc(Cl)c1 | -3% | -2.7% | -7% | -4% | -17% | 1% | -5% | -23%
COc1ccc(C(=O)NCc2ccccc2OC)cc1 | 0% | 1.6% | 11% | 10% | 26% | 1% | 4% | 21%
CCN(CC(=O)Nc1ccc(C(C)=O)cc1)CC(=O)Nc1ccccc1C(F)(F)F | -5% | / | -6% | 4% | 1% | / | / | 1%[46.1 µM]
CCN(CC(=O)NC(=O)NCc1ccccc1)Cc1ccccc1 | -6% | / | ? | -4% | -8% | / | 5% | -20%[46.1 µM]
CCCCn1nnc(NC(=S)NC(=O)c2ccc(OCC)c([N+](=O)[O-])c2)n1 | 12% | / | -17% | 9% | -12% | / | -13% | -6%
Cc1ccccc1S(=O)(=O)NCC1CCCO1 (stereo not given) | -4% | / | 8% | -7% | 30% | / | -2% | -6%
NS(=O)(=O)c1ccc(N2CCN(CCOc3ccc(Cl)cc3)CC2)nc1 | 1% | / | ? | 14% | ? | / | 14% | ?
COC(=O)CN1C(=S)N(c2ccc(Cl)cc2)C(=O)C1CC(=O)Nc1ccc(Cl)cc1 (stereo not given) | -4% | 1.2% | ? | 26% | 8% | -1% | -5% | -13%&-13%
CC(C)(C)C(=O)Nc1ccc2c(c1)OCCOCCOc1cc(NC(=O)C(C)(C)C)ccc1OCCOCCO2 | 0% | / | ? | 11% | -7% | / | 3% | ?
COc1ccc(-n2nnnc2CNC(=O)c2ccc(S(=O)(=O)N3CCOCC3)cc2)cc1 | 5% | / | 2% | 5% | -22% | / | / | 20%[46.1 µM]
COc1ccc(C2=CSC3=NCCN23)cc1Cl | 1% | / | 14%[46.1 µM] | -3% | -5% | / | ? | ?
COCCCN1C(=O)c2ccc(C(=O)N3CCN(c4ccccc4OC)CC3)cc2C1=O | 2% | / | / | -6% | -15% | / | -19% | /
c1ccc(Oc2ccc3ccccc3n2)cc1 | 3% | / | 0% | -3% | 57%[activator] | / | / | -15%[46.1 µM]
Cc1ccc(-c2cc(C(=O)NC3=NCCS3)c3cc(Br)ccc3n2)o1 | 13% | -15% | / | / | / | ? | ? | -2%
COc1ccc(-n2nnc3c(=O)n(CC(=O)OCc4ccccc4)cnc32)cc1 | -4% | -0.8% | / | 10% | -16% | -4% | -19% | /
Cc1cc(Cl)ccc1Oc1cccc(C(=O)/C(C#N)=C/N(C)C)c1 | -10% | -7.7% | 10% | 1% | -19% | ? | -18% | -17%
Additional entries follow:
SMILES | SARS PLP yeast | Cruzain inh Det | Lassa entry inh | RE007 growth inh | 2A StopGo | Cruzain inh noDet | NS1 inh | Marburg entry inh
CNC(=S)Nc1ccc2nc(C)oc2c1 | 0% | / | 4%[46.1 µM] | 2% | 1% | / | 3% | 5%[46.1 µM]
CN(Cc1cn(C)nc1-c1cccc(Cl)c1)CC1CCCCO1 (stereo not given) | 1% | / | -12%[46.1 µM] | 4% | 6% | / | 2% | ?
O=[N+]([O-])c1cc(S(=O)(=O)Nc2cccc(C(F)(F)F)c2)ccc1-n1nnc2ccccc21 | -26% | 4µM* | -20% | 13% | -15% | 10µM* | -81% | -28%
COC(=O)NCc1ccc(S(=O)(=O)N2CCOCC2)cc1 | 1% | -0.1% | -4% | -16% | -13% | -1% | -10% | -13%
Cc1cccc2cc(C#N)c(NCCNS(=O)(=O)c3ccccc3)nc12 | -1% | / | -2% | 17% | 21% | / | -7% | ?
